# CDC25B CDK2 inh = human CDC25B-CDK2/CyclinA binding inhibition; P30305+P24941; HTRF CDC25B-CDK2/CyclinA binding, anti-His/anti-Flag; stronger effect = higher value; 94,000 compounds, 0.72% hits; AID 1259370; z-score (test concentration not listed);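 also: score is relative to mean and SD of negative controls; strong numbers were not always called active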
# HIV TAR-Tat = HIV-1 TAR-Tat binding disruption; HIV-1 TAR RNA, Tat peptide displacement FRET; stronger effect = higher value; z-score (concentration not given with the values); 100,000 compounds, 0.6% hits; AID 1259389;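 also: score is relative to mean and SD of negative controls; some compounds called inactive have numbers as strong as hits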
# * = called active by the depositor; nt = no result given.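 The calls were made as follows: active = z-score from 3 up in half or more of its runs; inactive = the rest.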 Rows are unselected; any-hit rate near 0.97%.
SMILES,CDC25B CDK2 inh,HIV TAR-Tat
COCCNC(=O)Nc1ccc2snnc2c1,7.78*,1.79
CCOC(=O)C1CCCN(S(=O)(=O)c2cc3[nH]c(=O)c(=O)[nH]c3cc2C)C1 (stereo not drawn),nt,0.24
CCOc1ccc(C2C=C(C(=O)O)Nc3ncnn32)cc1Cl (stereo not drawn),-1.5,0.42
COc1ccc(OC)c(-n2c(SC(C(C)=O)C(=O)N(C)C)nnc2-c2c[nH]c3ccccc23)c1 (stereo not drawn),-0.75,nt
CCCS(=O)(=O)c1ncc(Cl)c(C(=O)Nc2c(C(=O)Nc3ccccc3)oc3ccccc23)n1,0.18,-1.06
O=C(NC(O)C(=O)c1cccs1)c1cccnc1 (stereo not drawn),-2.62,nt
Cc1ccc2nc3c(cc2c1)CCN3S(=O)(=O)c1ccc2c(c1)OCO2,-1.93,-0.12
CCN(CC)S(=O)(=O)c1ccc2c(c1)CC(C(=O)NCCc1cccs1)N2C(C)=O (stereo not drawn),nt,0.18
CCOC(=O)c1[nH]c(SC)c(S(=O)(=O)c2ccc(F)cc2)c1N,-2.02,-0.35
O=C(O)c1ccc(S(=O)(=O)c2ccc3c(c2)C(=O)N(c2ccc(O)cc2)C3=O)cc1,0.95,nt
CCOC(=O)c1cc(NC(=O)N(C(C)C)C2CCCCC2)c(C)nc1C,0.61,0.6
c1ccc(N2CCN(C3CCN(Cc4ccc5c(c4)OCO5)CC3)CC2)cc1,-0.65,nt
CC1Sc2ccc(S(=O)(=O)N3CC=C(c4ccccc4)CC3)cc2NC1=O (stereo not drawn),nt,2.05
O=C1N(Cc2cccc(Br)c2)c2ccccc2S(=O)(=O)N1c1cc(F)ccc1F,nt,2.28
CC(C)CC(=O)Nc1nn2c(CC(C)C)nnc2s1,-1.83,1.57
COc1cccc(-c2cc(C(=O)O)c3c(-c4cccc(OC)c4)[nH]nc3n2)c1,-1.55,1.15
CCOC(=O)C1CCN(C(c2ccccn2)c2c(C)[nH]c3ccccc23)CC1 (stereo not drawn),-1.33,nt
C/C(Cl)=C/CN1CCCC1,-2.77,nt
COC(=O)c1c(SCC(=O)Nc2ccc(F)cc2)[nH]c2ccc(Cl)cc2c1=O,nt,16.1*
COc1ccc(Nc2nc3ccc(Cl)cc3n3nnnc23)cc1OC,-0.7,-0.95
COC(=O)C(O)[C@@H]1C2(C)C(=O)[C@@H](CC3=C4CC(=O)O[C@@H](c5ccoc5)[C@]4(C)CCC32)[C@H](OC(C)=O)C1(C)C (stereo partly drawn),nt,2.57
Cc1cccn2cc(-c3cccc(S(=O)(=O)N4CCCC(C)C4)c3)nc12 (stereo not drawn),0.63,-0.79
CC(=O)N1CCc2cc(Br)cc(S(=O)(=O)N3CCC(N4CCCCC4)CC3)c21,-0.73,nt
CC(=O)Oc1cc2c(C(=O)NC3CCS(=O)(=O)C3)c(C)oc2c2ccccc12 (stereo not drawn),9.98*,-7.68
COCCOC(=O)c1c(C)oc2ccc(OCc3ccc(Br)cc3)cc12,-1.42,2.67
CCOc1ccc(NS(=O)(=O)c2cc(-c3noc(CC)n3)cs2)cc1,nt,1.3
CCCCc1c(C)nc2nc(C)[nH]n2c1=O,0.98,-0.08
CCN(CC)S(=O)(=O)c1ccc2c(c1)CC(C(=O)NCc1ccco1)N2C(C)=O (stereo not drawn),nt,1.55
COC(=O)c1cc(NC(=O)Nc2ccccc2C(F)(F)F)ccc1N1CCOCC1,-1.7,nt
CCn1c(N2CCCCC2)nc2c1c(=O)[nH]c(=O)n2C,-0.19,0.42

# Some of the entries so far, tab-delimited.
canonical_smiles	CDC25B CDK2 inh	HIV TAR-Tat
CCOc1ccc(NS(=O)(=O)c2cc(-c3noc(CC)n3)cs2)cc1	nt	1.3
CCCCc1c(C)nc2nc(C)[nH]n2c1=O	0.98	-0.08
CCN(CC)S(=O)(=O)c1ccc2c(c1)CC(C(=O)NCc1ccco1)N2C(C)=O (stereo not drawn)	nt	1.55
COC(=O)c1cc(NC(=O)Nc2ccccc2C(F)(F)F)ccc1N1CCOCC1	-1.7	nt

# As a working copy, part of the list above:
SMILES,CDC25B CDK2 inh,HIV TAR-Tat
COC(=O)c1cc(NC(=O)Nc2ccccc2C(F)(F)F)ccc1N1CCOCC1,-1.7,nt
CCn1c(N2CCCCC2)nc2c1c(=O)[nH]c(=O)n2C,-0.19,0.42

# Further compounds:
SMILES,CDC25B CDK2 inh,HIV TAR-Tat
O=C(CN1C(=O)c2ccccc2Sc2ncccc21)N1CCN(C(=O)c2ccco2)CC1,nt,1.08
O=C(Nc1ccc2oc(-c3c(F)c(F)c(F)c(F)c3F)nc2c1)c1ccc([N+](=O)[O-])cc1,-0.51,nt
CCOC(=O)c1oc2c(c1C)-c1nn(CC)cc1CC2,2.05,1.28
Cc1cccc(Cn2nc(C)n3c(cc4cc(C)ccc43)c2=O)c1,-0.24,1.06
c1ccc2c(c1)nc(NCc1ccncc1)n2CCN1CCOCC1,-2.59,-1.7
CCOC(=O)c1c(C(C)(C)C)oc2ccc(OCC(=O)OC(C)(C)C)cc12,0.74,nt
COC(=O)c1c(SC)nc(-c2ccccc2)[nH]c1=O,-2.87,nt
O=C1COc2cc(-c3c(NC4CCCCC4)c(=O)c3=O)ccc2N1,nt,-1.2
CCOc1ccc(OCC)c(Nc2c(-c3ccc4c(c3)CCCC4)c(=O)c2=O)c1,nt,1.29
Cn1c(=O)c2c(nc(CN3CCOCC3)n2Cc2ccccc2Cl)n(C)c1=O,-1.15,-0.91
COc1ccc(NC(=O)N2CCn3cccc3C2C)cc1 (stereo not drawn),nt,-7.37
Cc1cccc(-c2nc3c(c(=O)[nH]2)Cc2cc(Cl)ccc2O3)c1,-1.75,1.64
CCN(CC)C(=O)CSc1[nH]c2ccccc2c(=O)c1C(=O)OC,-1.74,1.89
Fc1ccc(-c2noc3ncnc(N4CCCCC4)c23)cc1,nt,-0.31
CC(C)C(NS(=O)(=O)c1ccc2c(c1)oc(=O)n2C)C(=O)NC1CCCC1 (stereo not drawn),0.6,nt
CC1Cc2cc(/C(O)=C3/C(=O)C(=O)N(CCN(C)C)C34C(=O)N(C)c3ccccc34)ccc2O1 (stereo not drawn),1.35,0.96
COc1ccccc1CNc1nc2cc(OC)c(OC)cc2c2nc(-c3ccccc3)nn12,-1.99,-1.31
N#CCCn1[nH]c(-c2ccccc2)cc1=O,-0.92,nt
CCOC(=O)C1=C(C)Nc2ncnn2C1c1ccncc1 (stereo not drawn),-0.45,-0.05
COc1ccc(C(=O)n2c(=O)oc3ccc(C(C)(C)C)cc32)cc1OC,nt,1.49
CCC(C(=O)N1CCN(C2CCCCC2)CC1)n1sc2ccccc2c1=O (stereo not drawn),-0.36,1.89
COc1cc(N=Cc2ccccc2O)cc(C(F)(F)F)c1,-0.55,nt
O=C(NCCc1ccccc1)N1CCSc2ncccc21,nt,0.18
CC(NS(C)(=O)=O)C(c1cccs1)N1CCN(c2ccc(F)cc2)CC1 (stereo not drawn),-1.46,nt
O=C(NCc1c(-n2cccc2)sc2c1CCCC2)Nc1ccc(Br)cc1,-0.87,3.71
O=C(CCC(=O)N1CC2CCCN2c2ccccc21)NCc1ccc2c(c1)OCO2 (stereo not drawn),nt,-0.31
O=C(CCC1=NS(=O)(=O)c2ccccc2N1)Nc1ccc(Br)cc1,nt,-0.15
O=C(c1cccc(Cl)c1)n1c(=O)oc2ccccc21,nt,0.03
CCOC(=O)C1CCN(S(=O)(=O)c2ccc3c(c2)N(C(C)=O)CC(C)S3)CC1 (stereo not drawn),nt,-0.94
COc1cc(NS(=O)(=O)c2c(C(=O)N3CCCC3)c(C)n(C)c2C)cc(OC)c1,nt,0.69
CCCSc1ncc(Cl)c(C(=O)Nc2nnc(CCC)s2)n1,-1.43,0.68
O=C(CC1(O)C(=O)Nc2ccccc21)c1ccco1 (stereo not drawn),-0.79,-0.33
CCOc1ccccc1Nc1nc2ccccc2n2c(C)nnc12,-2.27,1.32
O=C(NC1CC1)c1cc2ccccc2oc1=O,-1.76,nt
COc1cccc(OCc2cc(=O)n3c4c(sc3n2)CCCC4)c1,1.15,0.17
O=C1CC(c2ccc3c(c2)OCO3)C2=C(CC(c3ccc(F)cc3)CC2=O)N1 (stereo not drawn),-0.24,1.12
CCCCSc1nnc(NC(=O)Cc2coc3ccc(OC)cc23)s1,-2.23,0.75
Cc1cc2c3c([nH]c2cc1S(=O)(=O)NCCc1sccc1C)CC(C)(C)CC3=O,nt,0.93
Cc1c(/C=C/c2ccnc(SCC(=O)Nc3ccccc3)n2)sc2ccccc12,-2.6,nt
CCOC(=O)c1sc(N2C(=O)c3oc4ccccc4c(=O)c3C2c2ccccc2F)nc1C (stereo not drawn),-0.21,-0.15

# The closing 4 entries of the section before lead into the next:
SMILES,CDC25B CDK2 inh,HIV TAR-Tat
CCCCSc1nnc(NC(=O)Cc2coc3ccc(OC)cc23)s1,-2.23,0.75
Cc1cc2c3c([nH]c2cc1S(=O)(=O)NCCc1sccc1C)CC(C)(C)CC3=O,nt,0.93
Cc1c(/C=C/c2ccnc(SCC(=O)Nc3ccccc3)n2)sc2ccccc12,-2.6,nt
CCOC(=O)c1sc(N2C(=O)c3oc4ccccc4c(=O)c3C2c2ccccc2F)nc1C (stereo not drawn),-0.21,-0.15
O=C(O)c1ccc(CNc2c(N3CCCCC3)c(=O)c2=O)cc1,nt,1.63
COCCNC(=O)CCCn1sc2ccccc2c1=O,-1.18,0.9
CCOC(=O)C1CCN(C(=O)Nc2ccc(OC(F)(F)F)cc2)CC1,-0.43,nt
FC(F)(F)COc1ccc(-c2nnc(SCc3ccccc3)o2)cn1,-0.53,nt
Cc1cc(C)c(S(=O)(=O)Nc2cccc(C3NC(=O)CS3)c2)cc1C (stereo not drawn),nt,2.34
Cc1noc2ncnc(N3CCC(C(=O)N4CCN(C(=O)c5ccco5)CC4)CC3)c12,nt,2.84
CCOc1nc(-c2ccc(Cl)cc2)ccc1-c1noc(-c2ccco2)n1,-0.61,-6.75
O=C(Cn1nc(Cc2cccnc2)c2ccccc2c1=O)NCc1ccc2c(c1)OCO2,-2.07,2.85
Cc1nnsc1C(=O)OCCN(C)c1ccc(C#N)cn1,-1.2,nt
C=CCN[C@H]1CS(=O)(=O)C[C@@H]1S(=O)(=O)c1ccc(OCC)cc1,-2.07,0.51
CCOc1ccccc1NS(=O)(=O)c1cn(C)cn1,nt,2.58
Cc1ccc(C(CNC(=O)c2oc3cc(C)c(C)cc3c2C)N2CCN(C)CC2)o1 (stereo not drawn),-0.46,2.08
CCOC(=O)C1=C(C)Nc2nc(SCC)nn2C1c1ccc(OCC)cc1 (stereo not drawn),-0.97,2.08
COc1cccc(-c2noc(COc3ccccc3OC)n2)c1,-0.22,0.41
CCCCOC(=O)c1[nH]c2c(c1C)C(=O)CC(c1cccs1)C2 (stereo not drawn),-2.01,nt
CCOC(=O)C1CCN(C(=O)Nc2cn(CC(C)C)c(=O)c3ccccc23)CC1,nt,0.6
Cc1c(C(=O)C(=O)N2CCOCC2)c2ccccc2n1C,-0.95,nt
COc1ccc(OC)c(-c2cc(C)c3c(ccc4ccccc43)n2)c1,0.35,nt
COc1ccc(C2OC(=O)C(=O)/C2=C(\O)c2ccc(Cl)cc2)cc1 (stereo not drawn),0.13,2.35
CCC(Nc1nc(-c2ccccc2)nc2ccccc12)C(=O)O (stereo not drawn),-0.04,-0.14
O=C1NCCN1CCNC(=S)NC1CC1,-0.03,nt
O=C(c1cc2ccccc2s1)N1CCC(O)(c2ccc(Cl)cc2)CC1,1.39,nt
O=C(CN1CCc2ccccc21)NN1CC(=O)N(c2ccc(Cl)cc2)CC1=O,-2.28,nt
S=c1[nH]nc(NCCc2ccc(Cl)cc2)s1,-0.89,nt
O=C(NCCN1CCN(c2ccccc2)CC1)Nc1ccc2c(c1)OCCO2,-0.84,0.56
Cc1ccccc1-c1noc(Cn2c(=O)[nH]c3cc4c(cc3c2=O)OCO4)n1,nt,0.77
CC(CC(=O)NC1CC1)S(=O)(=O)c1ccc2c(c1)CCN2C(=O)C1CC1 (stereo not drawn),nt,-0.36
COc1cc(OC)c(N(C)C(=O)c2nc(-c3ccncc3)no2)cc1Cl,nt,0.39
CSCC[C@@H](C(=O)NCc1ccc2c(c1)OCO2)N1Cc2ccccc2C1=O,0.24,nt
CCCCNS(=O)(=O)c1cc2c3c(c1)CCC(=O)N3CCC2,nt,0.38
Cc1cc(=O)nc2c3ccccc3n(C(C)C(=O)N3CCN(C4CCCCC4)CC3)n12 (stereo not drawn),-2.27,0.06
Cc1ccc(C)c(-n2c(CNC(=O)c3ccco3)nnc2SCC(=O)Nc2nccs2)c1,0.65,nt
CC(C)CC(NS(=O)(=O)c1ccc2c(c1)CCCC(=O)N2)C(=O)N1CCCCC1 (stereo not drawn),nt,0.51
COc1ccc(-c2cc3nc(C)cc(C)n3n2)cc1,-1.1,0.46
CCCN(CCC)C(=O)c1nn(C)c2c1COc1ccccc1-2,-0.95,1.46
Cn1c(N2CCCCCC2)nc2c1c(=O)[nH]c(=O)n2C,-1.18,nt
Cc1cc(C)cc(NC(=O)N2CCCC2c2cccs2)c1 (stereo not drawn),-2.17,0.5
CCOC(=O)c1c(NC(=O)CSc2nnc3ccc4ccccc4n23)sc(C)c1C,0.33,nt
O=C(CSc1ccsc1[N+](=O)[O-])NCC1CCCO1 (stereo not drawn),-1.5,-0.08
CC1(C)CC(=O)C2=C(C1)Nc1ccccc1N(C(=O)c1cccs1)C2c1ccco1 (stereo not drawn),nt,1.25
Cc1ccccc1S(=O)(=O)N1CCN(c2nc3ccccc3n3cccc23)CC1,-2.16,-1.43

# Full records, quoted from the list:
# Results for `O=C1NCCN1CCNC(=S)NC1CC1` = CDC25B CDK2 inh: -0.03; HIV TAR-Tat: nt
# Results for `CC(=O)Oc1cc2c(C(=O)NC3CCS(=O)(=O)C3)c(C)oc2c2ccccc12` (stereo not drawn) = CDC25B CDK2 inh: 9.98*; HIV TAR-Tat: -7.68
# Results for `CCOc1ccc(C2C=C(C(=O)O)Nc3ncnn32)cc1Cl` (stereo not drawn) = CDC25B CDK2 inh: -1.5; HIV TAR-Tat: 0.42
